Screens: PubChem, National Center for Advancing Translational Sciences (NCATS)
ClpP mod – qHTS Assay for Activators of ClpP. 340,000 compounds, 1.9% hits. ATP-dependent Clp protease proteolytic subunit (Bacillus subtilis (strain 168)), P80244. purified B. subtilis ClpP, FRET peptide cleavage, 20 min. AID 651965, 2013. Potency, µM (top dose mostly 57.5 µM), for inactives: at the top dose activity change, negative = active; active = well fitted falling curve with a large enough effect; inconclusive = small, poorly fitted or top-dose-only effect; inactive = no such curve, though single readings can be large or run the other way; further: potency means the concentration at half of the fitted maximal effect; the source files actives as falling curves though it sought activators and does not explain the sign; nearly all actives have a fitted effect of over 65% in size; many hits overshoot -100%
Target sequence (P80244 whole entry, looked up): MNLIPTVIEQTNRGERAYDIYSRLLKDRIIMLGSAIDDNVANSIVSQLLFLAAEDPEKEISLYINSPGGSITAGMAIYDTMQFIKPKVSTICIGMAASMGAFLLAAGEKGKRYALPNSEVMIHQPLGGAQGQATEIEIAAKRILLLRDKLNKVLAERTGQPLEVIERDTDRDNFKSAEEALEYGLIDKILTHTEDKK
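Purified B. subtilis ClpP, 10 microg/mL final in Tris/HCl pH8 with KCl, BSA, glycerol and Tween-20, cleaved an Abz/nitrotyrosine-quenched decapeptide. Fluorescence (ex 320, em 430) was read at 0 and 20 min at room temperature. Delta was normalized to 5.8 microM ADEP and DMSO/no-enzyme controls.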
TRPML1 blocker – qHTS for Inhibitors of the Human Mucolipin Transient Receptor Potential 1 (TRPML1). Mucolipin-1 (Homo sapiens), Q9GZU1. TRPML1-inducible cells, Ca2+ dye fluorescence, FDSS; stronger effect = lower value; inhibition of EC80 agonist-evoked calcium signal. activity change, negative = inhibition, % (no concentration beside the values). 390,000 compounds, 0.02% hits; in the data active means activity change below about -50%; inconclusive means about -30% to -50%; inactive means above about -30%;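 further: stimulus is agonist 54-4 at its EC80 concentration; on the % scale 0 is the no-effect control and ±100 the full control effect; compound concentration not given in the record; the text of the record puts the active cut at -80%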
Target sequence (Q9GZU1 whole entry, looked up): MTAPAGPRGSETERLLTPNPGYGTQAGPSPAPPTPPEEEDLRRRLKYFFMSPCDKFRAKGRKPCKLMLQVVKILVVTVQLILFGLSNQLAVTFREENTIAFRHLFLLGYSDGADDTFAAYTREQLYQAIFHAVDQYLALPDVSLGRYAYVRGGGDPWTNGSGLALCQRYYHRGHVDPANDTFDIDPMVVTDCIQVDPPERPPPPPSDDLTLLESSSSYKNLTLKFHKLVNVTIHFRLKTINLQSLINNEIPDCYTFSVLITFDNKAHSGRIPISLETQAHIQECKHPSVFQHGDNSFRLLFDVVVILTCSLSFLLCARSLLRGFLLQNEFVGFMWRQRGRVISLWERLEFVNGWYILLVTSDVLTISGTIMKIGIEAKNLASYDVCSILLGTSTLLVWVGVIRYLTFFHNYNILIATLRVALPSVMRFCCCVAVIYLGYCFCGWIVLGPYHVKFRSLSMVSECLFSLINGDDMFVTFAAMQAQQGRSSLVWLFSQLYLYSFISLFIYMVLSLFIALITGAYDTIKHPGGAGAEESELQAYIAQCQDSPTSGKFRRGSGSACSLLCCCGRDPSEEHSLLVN
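Tet-induced TRPML1-DL cells loaded with Ca8 no-wash calcium dye were read kinetically on FDSS. Compound addition was followed by EC80 agonist 54-4 (4 uM final); inhibition was read over 110 s.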
TRPML1 ag – qHTS for Agonists of the Human Mucolipin Transient Receptor Potential 1 (TRPML1). TRPML1-expressing cells, Ca2+ dye fluorescence, FDSS; host cell line not named in the record; reference of the full effect not given here. activation, % (concentration not given with the values). AID 624414, 2012. 410,000 compounds, 0.12% hits; in the data active = activation above about 50%; inconclusive = about 30% to 50%; inactive = below about 30%; further: 0% is about no effect; the text of the record puts the active cut at 80%
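Tet-induced TRPML1-DL cells, 1,500 per well, cultured overnight, were loaded with a no-wash Ca2+ dye for 45–90 min. Calcium fluorescence was recorded on the FDSS for 110 s after compound addition, before the EC80 agonist (4 uM 54-4) was added.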
gsp agonist – qHTS for Agonist of gsp, the Etiologic Mutation Responsible for Fibrous Dysplasia/McCune-Albright Syndrome: qHTS. gsp mutant cells, cAMP HTRF, 30 min; control for the full effect not named in the record. Potency, µM (highest dose often 76.9 µM), without a hit: at the top dose activation (cAMP increase), actives largely listed as activators. 340,000 compounds, 0.13% hits; active = well fitted activation curve with a large enough effect; inconclusive = small, poorly fitted or top-dose-only effect, or another doubt; inactive = no such curve, though single readings can be large or run the other way; cell line not stated here;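 further: phosphodiesterase inhibitor Ro 20-1724 added with compounds to block cAMP breakdown; potency means the concentration at half of the fitted maximal effect; nearly all actives have a fitted effect of over 60% in size; about a fifth of the inactives were tested at one dose only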
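Cells in DMEM/10% FBS with G418 were pretreated with compounds in DMSO plus […] (300 uM stock) for 30 min at 37C. cAMP was measured by HTRF (cAMP-d2 plus anti-cAMP antibody-K) after 30 min at room temperature.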
gsp antag – qHTS for Antagonists of gsp, the Etiologic Mutation Responsible for Fibrous Dysplasia/McCune-Albright Syndrome: qHTS | AID 624288, 2012 | gsp-mutant cells, cAMP HTRF, 30 min; control for the full effect not named in the record | Potency, µM (titrated, usually from 76.9 µM), without a hit: at the highest dose activity change, negative = inhibition, most hits filed as inhibitors | 340,000 compounds, 0.4% hits; active = falling curve of any shape with a large fitted effect; inconclusive = falling curve, mostly with a smaller effect; inactive = flat or rising curve; cell line not stated here;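 further: intracellular cAMP measured with PDE inhibitor Ro 20-1724 present during compound exposure; potency means the concentration at half of the fitted maximal effect; on the % scale 0 is the no-effect control and ±100 the full control effect; nearly all actives have a fitted effect of over 65% in size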
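HTRF cAMP read-out (cAMP-d2 plus anti-cAMP antibody-K in lysis buffer, 30 min RT). Before lysis, cells are exposed to compounds with […] for 30 min at 37C in DPBS containing Ca/Mg, BSA and Tween 20.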
Menin MLL FP FL – qHTS Assay for Inhibitors Targeting the Menin-MLL Interaction in MLL Related Leukemias: Competition With Fluorescein Labeled MLL-derived Peptide | Fluorescence polarization, fluorescein-MLL peptide displacement from menin | FP activity change, % at 61.4 µM | 290,000 tested, under 10 active; inconclusive = falling polarisation curve, or a change in total fluorescence; inactive = total fluorescence flat and polarisation flat or rising; no compound was filed as active; the % refers to the polarisation; negative = inhibition;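 further: % of control where 0% means no effect; inhibitors lower the polarisation; unlabelled MLL peptide was the positive control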
* hit, by the source's call; ? = inconclusive; . = not tested or not shown; & = joins results of further samples; [ ] = dose if it differs, or a comment.

SMILES	ClpP mod	TRPML1 blocker	TRPML1 ag	gsp agonist	gsp antag	Menin MLL FP FL
Cn1nnnc1SCC(=O)NNC(=O)c1ccc(Cl)cc1	.	1	1.8	1%[15.4 µM]	14%	1.5
CC(=O)c1ccc(N2C(=NC(=O)C3CCCO3)SC3CS(=O)(=O)CC32)cc1 (centres undefined)	-1.1%	26	5.7	2%	-3%	0.3
CC(Sc1ccc(Cl)cc1)C(=O)NNC(=O)c1ccccc1O (centres undefined)	-29%	7	-0.4	14%	-13%	.
CC(C)Cn1c(=O)c2c(c3ccccc31)OC(C)C(=O)N2 (centres undefined)	-6.8%	3	-0.5	-1%	7%	1.0
Cc1nc(C)c(C(=O)OCC(=O)N(C)c2ccccc2)s1	-8.9%	9	0.3	9%[15.4 µM]	5%	.
O=C(CN1CCC(O)(c2ccc3c(c2)OCO3)CC1)NC1CCCCC1	0.8%	-5	-0.7	4%	9%	-3.7
O=C(Nc1cccc2ncccc12)c1ccc(Br)c([N+](=O)[O-])c1	.	-15	1.2	-6%[15.4 µM]	?	-1.4
Cc1ccc(NC(=O)CCC(=O)c2cc(C)sc2C)nc1	.	0	-0.7	-4%[15.4 µM]	5%	.
O=C1CC(NNC(=O)c2ccc(Br)cc2)C(=O)N1 (centres undefined)	.	38	-0.1	6%[15.4 µM]	8%	7.0
Cc1cccc(C)c1NC(=O)C1CC2CCC1C2 (centres undefined)	.	32	1.0	-2%	1%	.
O=C(CSc1nnnn1-c1ccc2c(c1)OCCO2)N1CCN(C(=O)c2ccco2)CC1	-3.5%	-13	-0.8	2%[15.4 µM]	-8%	-6.3
CSc1ccccc1NC(=O)CN(C)C(=O)C1CC(=O)N(C(C)c2ccccc2)C1 (centres undefined)	0.6%	-13	-0.5	7%	7%	.
COCCCNC(=O)CN(c1cc(OC)ccc1OC)S(=O)(=O)c1ccccc1	-0.2%	-6	-0.4	-1%	-4%	-0.1
Cc1ccc(-c2nnc(Nc3ccccc3O)c3ccccc23)cc1	-1.6%	9	1.5	.	.	.
O=C(CN1C(=O)NC2(CCCCCC2)C1=O)Nc1cccc(F)c1	1.5%	3	-0.2	-1%	13%	.
NC(=O)c1ccc2c(c1)S(=O)(=O)c1ccccc1C2=O	-0.2%	-2	2.0	-64%[inhibitor]	7%	?
Cc1cccc(NC(=O)CSc2cc(C(=O)c3nccn3C)c3ccccc3n2)c1	1.1%	-2	0.0	-40%[inhibitor]	3%	5.2
c1cc2c3c(cccc3c1)C(N1CCOCC1)=N2	.	35	2.1	16%[15.4 µM]	-12%	?
COc1cccc(Cn2nnc(C(=O)NCc3ccccc3Cl)c2N)c1	1.4%	54	1.8	6%	0%	1.2
CC1(C)C2([N+](=O)[O-])CN3CC1([N+](=O)[O-])CN(C2)C3c1ccc(O)c(O)c1 (centres undefined)	.	0	0.8	-6%[15.4 µM]	5%	1.4
O=C(Nc1ccc2c(c1)OCO2)N1CCN(Cc2ccco2)CC1	.	17	-0.3	-5%[15.4 µM]	3%	5.2
CC(NC(=O)c1ccccc1F)c1nnc(SCC(=O)Nc2nnc(C3CC3)s2)n1C (centres undefined)	.	-13	-0.6	31%[15.4 µM]	?	.
CCN1C(=O)[C@H]2[C@H]3CN=C(SCc4ccc(C#N)cc4)N3[C@@](CC)(C(=O)OC)[C@H]2C1=O	-0.6%	2	3.7	.	6%	.
C(CCc1nn[nH]n1)CCC1CCCCC1	.	-2	0.7	8%	-9%	.
COc1ccccc1CCNC(=O)c1ccc(-c2nc(CSc3ccc(C)cc3)c(C)o2)cc1	2.1%	30	2.9	.	.	.
CCCCCCC(=O)N/N=C/c1ccc(Br)cc1	-0.9%	0	1.5	-52%[inhibitor]	3%	-0.4
N#CCCCN1C(=O)C(O)(CC(=O)c2ccc3c(c2)OCCO3)c2ccccc21 (centres undefined)	-6.4%	-20	0.4	?	7%	-0.9
O=C(COc1ccc(Br)cc1)N1CCCCCC1	-0.4%	5	2.2	8%	8%	0.9
Cc1ccc2[nH]c(CNC(=O)C3CCCCC3)cc2c1	.	7	0.0	-13%[15.4 µM]	3%	-0.9
O=C(N/N=C/c1ccc[nH]1)c1ccccc1OCc1ccccc1Cl	.	19	5.5	21%[15.4 µM]	-24%	-2.4
COc1ccc(NC(=O)c2cc(-c3cc(Cl)ccc3C)n[nH]2)c(OC)c1	-6.8%	1	-0.7	.	.	.
O=C(CS(=O)(=O)c1cccc2nsnc12)Nc1ccccc1	-0.2%	-5	0.7	.	.	.
O=C(Nc1nnc(-c2cc(Cl)ccc2Cl)o1)C1=COCCO1	.	1	9.9	-24%[15.4 µM]	10%	.
O=C1C(Cl)=C(NS(=O)(=O)c2ccc([N+](=O)[O-])cc2)C(=O)c2ccccc21	.	-15	-0.1	17%[15.4 µM]	-15%	-2.2
O=C(CC1Sc2ccccc2NC1=O)NCc1ccccc1 (centres undefined)	-1.3%	18	-0.3	-6%	0%	-0.3
O=C(NNC(=O)c1cc2ccccc2cc1O)c1cccs1	.	-1	-1.1	-4%[15.4 µM]	-2%	-0.8
Cc1cccc(NC(=O)CSc2nc3c(oc4ccccc43)c(=O)n2Cc2ccco2)c1	-4.4%	3	-0.7	.	.	.
COc1ccccc1N1C(=N)S/C(=C\c2ccc(-c3ccccc3C(=O)O)o2)C1=O	2.5%	9	6.1	-7%	1%	?
CCN(C(=O)c1ccc(NC(=O)c2ccco2)cc1)c1ccccc1	-1.4%	16	-0.8	11%[15.4 µM]	-5%	.
Cc1ccc(SCc2nn(C)c(Cl)c2C=O)cc1	.	4	-0.5	8%[15.4 µM]	-7%	-0.1
CCOC(=O)c1c(NC(=O)C[n+]2ccc(Cc3ccccc3)cc2)sc(C)c1C	.	9	-0.2	9%	4%	-5.5
Cc1cccc(C2Nc3ccccc3C(=O)N2c2ccccc2)n1 (centres undefined)	?	13	0.3	37%	-6%	7.5
CC1(C)C(=O)Nc2ccccc2N1C(=O)COC(=O)CSc1ccc(F)cc1	-0.1%	9	4.2	?	-4%	.
CCOC(=O)C1NN=C(C(=O)c2ccccc2)C1c1ccccc1 (centres undefined)	-8.4%	40	0.7	4%	2%	6.1
CC1(Cc2ccccc2C#N)C(=O)Nc2ccc(-c3ccccc3)cc21 (centres undefined)	-3.1%	22	1.2	.	.	.
NS(=O)(=O)c1ccc(NC(=O)NC2CC(=O)N(c3ccc4c(c3)OCCO4)C2)cc1 (centres undefined)	-0.5%	-28	0.6	-3%[15.4 µM]	17%	.
COc1ccc(N2CCN(S(=O)(=O)CCNC(=O)COc3cccc(OC)c3)CC2)cc1	-10%&5.1%	-6&11	-0.7&1.2	4%	-9%	-1.7
Cc1c(NC(=O)CSc2nnc(-c3ccco3)n2-c2ccccc2)c(=O)n(-c2ccccc2)n1C	-0.2%	-5	-0.3	-7%	-6%	-0.7
O=C(CSc1nc(-c2ccccc2Cl)ns1)NCc1ccc2c(c1)OCO2	-0.8%	-2	1.4	-27%	4%	8.7
CCOC(=O)C(C)Oc1ccc2c(C)cc(=O)oc2c1C(C)=O (centres undefined)	?	81	-0.3	3%	1%	2.0
Continuation.
SMILES	ClpP mod	TRPML1 blocker	TRPML1 ag	gsp agonist	gsp antag	Menin MLL FP FL
Cc1c(/C=N/Nc2ccc(C(=O)O)cc2)c2ccccc2n1C	-19%	-14	1.0	-22%	?	?
C[C@@H]1CN([C@H](C)CO)C(=O)c2cc(Br)cnc2O[C@@H]1CN(C)Cc1cncnc1	-2.1%	-5	0.2	12%	.	.
Brc1ccc(C2=Nn3c(Cn4nnc5ccccc54)nnc3SC2)cc1	-1.2%	-16	0.4	-1%	?	3.2
Cc1cccc(OCC(=O)N(Cc2ccc(F)cc2)C2CCS(=O)(=O)C2)c1C (centres undefined)	-0.3%	-2	0.4	16%	1%	-5.3
CCCCCC/C=N/Nc1nnc(Cc2ccc(OC)c(OC)c2)c(=O)[nH]1	.	-11	-0.1	23%	0%	-4.1
CCc1nc2ccccc2c(=O)n1/N=C/c1ccc(OC)cc1	-0.2%	57	-0.6	-3%[15.4 µM]	3%	.
CCC(=O)N1CCc2cc(S(=O)(=O)CCC(=O)NCc3ccc4c(c3)OCO4)ccc21	0.3%	4	-0.5	29%	-2%	10
CC(C)Cn1c(N)c(C(=O)COC(=O)c2cccc(F)c2)c(=O)n(C)c1=O	-0.8%	2	0.7	-45%[inhibitor]	-19%	0.8
C=C(C)c1cccc(C(C)(C)NC(=O)N2CCN(c3ccccc3OC)CC2)c1	-1.4%	-9	-0.2	15%[15.4 µM]	-6%	-0.2
CC(=O)Oc1cc(C(C)C)c(OCCN(C)C)cc1C	-1.1%	-1	-0.6	.	17%	2.2
Cc1ccc2cccc(Oc3ncnc4scc(-c5ccccc5)c34)c2n1	1.4%	-13	1.9	-17%	-7%	2.6
COc1ccc(C(=O)OCC(=O)NC(=O)NC2CCCC2)cc1OC	-2.5%	-4	1.0	-14%	6%	.
Cc1cc2c(=O)n(CC(=O)N3CCN(c4ccccc4)CC3)cnc2s1	1.7%	34	1.2	21%	-6%	1.5
Cc1ccc(CNC(=O)CCn2ccc3cc(S(=O)(=O)N4CCCC4)ccc32)cc1	-0.1%&-3.4%	-6&22	-1.2&-0.4	-3%	-34%	-2.9
CCn1cc(C(=O)O)c(=O)c2cc(F)c(N3CCN(C(=S)NC(=O)c4ccccc4C)CC3)cc21	.	6	0.8	10%[15.4 µM]	-4%	-4.5
COc1ccccc1-c1nnc(SCC(=O)Nc2ccc3[nH]c(=O)[nH]c3c2)n1N	1.0%	-3	3.7	?	9%	.
O=[N+]([O-])c1cc(/C=N/Nc2nc(N3CCCCC3)nc(N3CCCCC3)n2)ccc1O	-1.0%	-2	-0.7	5%[15.4 µM]	0%	-3.0
COc1ccc(COC(=O)Oc2ccc(CNC(C)=O)cc2OC)c([N+](=O)[O-])c1	2.4%	-18	-0.6	-32%[inhibitor]	-2%	.
COc1ccc(-c2cc(C(F)(F)F)nc(NCc3ccco3)n2)cc1OC	?	-4	-0.2	-1%	8%	3.3

Random draw from the library, and some 2.1% of all compounds hit somewhere here.
